From PubChem BioAssay
LT uptake inh = blocks cellular internalization of anthrax lethal toxin. Cells, anthrax lethal toxin internalization, FRET ratio (460/530). Potency, µM (highest dose often 40 µM), for inactives: top-dose activity change, negative = inhibition, most hits filed as inhibitors. 0.67% of 70,000 active; active = well fitted falling ratio curve with the 530 nm signal flat; inconclusive = other ratio curves, or a change in one channel alone; inactive = flat curves in the ratio and both channels; the % refers to the ratio; further: on the % scale 0 is the no-effect control and ±100 the full control effect; nearly all actives have a fitted effect of over 50% in size; tested in ME-180 cells; beta-lactamase reporter
Prx2 Sm inh = blocks S. mansoni peroxiredoxin 2 enzymatic activity; S. mansoni Prx2 activity coupled to TGR/GSH (TGR is thioredoxin glutathione reductase), NADPH fluorescence loss, qHTS; some inactives read as strong as hits; Potency, µM; 0.07% of 65,000 active; active means full or partial inhibition curve with a strong effect at the top dose; inconclusive means weaker partial or single-point curve; inactive means no accepted curve; further: series up to 57 µM; many of its hits are not listed in these tables
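qHTS, coupled TGR/Prx2 format; 15 min compound preincubation at RT; reaction started with H2O2 (2.5 mM aliquot); kinetic NADPH fluorescence decrease, ex 365/em 450 nm.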
* marks the source's active call; other numbers are inactive results; ? = inconclusive; · = not tested or not shown; & = joins results of further samples; [ ] = remark or other dose. Potency means the concentration at half of the fitted maximal effect.

structure | LT uptake inh | Prx2 Sm inh
O=C(CCS(=O)(=O)c1ccc(Cl)cc1)N1CCN(S(=O)(=O)c2cccs2)CC1 | -5% | >57
NC(=O)CCCCC(N)=O | -3% | ·
COCc1cc(C)nc(SCC(=O)Nc2ccccc2C)c1C#N | -13% | >57
Nc1cc(Cl)c(N)c(Cl)c1 | 3% | ·
CCC(OC(=O)c1cc2sccc2n1C)C(=O)NCC1CCCO1 (configuration not stated) | ? | >57
CN(C)CC/C=C1\c2ccccc2COc2ccccc21 | ? | >57&>57&>57
Nc1cc(N)nc(SCCOc2ccccc2)n1 | -7% | ·
O=C(c1ccccc1)c1ccc(C(=O)N2CCOCC2)cc1 | 14% | >57
CCCC(=O)c1ccc(N2CCN(S(=O)(=O)c3ccccc3)CC2)c(F)c1 | ? | ·
CCOC(=O)c1nnn(-c2nonc2N)c1-c1cccc2ccccc12 | -9% | >57
Cc1ccc(N(CC(=O)Nc2ccc3c(c2)OCCO3)S(=O)(=O)c2c(C)noc2C)cc1 | -26% | >57
CC12C=C(/C=C/C=C/c3ccco3)C(C)(C1)C(/C=C/c1ccco1)CC2=O (configuration not stated) | -16%[8 µM] | ·
COc1ccc(C(=O)Nc2nccs2)cc1OC | -4% | >57
O=S(=O)(NCc1cccnc1)c1cc(Cl)ccc1Cl | -2% | >57
CS(=O)(=O)N1CCC2(CCN(c3cccc(-c4ccccc4)c3)CC2)CC1 | -6% | >57
CCOC(=O)c1ccc(NS(=O)(=O)N2CCCCCC2)cc1 | 0% | >57
CCOC(=O)CNc1ncnc2nc[nH]c12 | 13% | >57
Cc1ccc(NC(=O)CSC2=C(C#N)C(c3ccc4c(c3)OCO4)C3=C(CCCC3=O)N2)c(C)c1 (configuration not stated) | ? | ·
CC(=O)N1CCC2(CC1)CN(c1ccccn1)C2 | -18% | >57
Cc1cccc(-n2c(O)c(C=Nc3ccccc3N)c(=O)[nH]c2=O)c1 | 1% | ·
COc1cccc(-c2nn(-c3ccccc3)cc2C(=O)NCC(=O)O)c1 | -6% | >57
CCOC(=O)c1c(C)[nH]c(C(=O)Cn2c(=O)oc3ccccc32)c1C | 6% | >57
Cc1ccc2c(c1)N(CCC(=O)NCCCOC(C)C)C(=O)C(C)O2 (configuration not stated) | 6% | >57
COc1ccc(-c2ccc(-c3nnc(Cc4ccc(OC)c(OC)c4)o3)cc2)cc1 | -27% | >57
Cc1cc(NCCN2CCOCC2)n2ncc(-c3ccc(Cl)cc3)c2n1 | -1% | >57
CS(=O)(=O)N1CCC(C(=O)Nc2cc(C(F)(F)F)ccc2Cl)CC1 | 0% | >57
COc1ccc2c(c1)c(CC(=O)O)c(C)n2C(=O)c1ccc(Cl)cc1 | ? | >57&>57&>26
COc1ccc(OCC(=O)Nc2cc(-c3nn4c(C)nnc4s3)ccc2C)cc1 | 8% | >57
CN1c2ccccc2-c2nc3ccccc3n2C1c1ccncc1 (configuration not stated) | · | >57
S=c1[nH]c2ccccc2[nH]1 | -3% | ·
COc1cc(C)nc(NS(=O)(=O)c2ccc(C)cc2)n1 | 0% | >57
CN(Cc1ccc(OC(F)F)cc1)C(=O)c1ccc2nccnc2c1 | 8% | >57
Cc1cc(Cl)cc(Br)c1OCCNCC(C)O (configuration not stated) | 8% | >57
COc1ccc(OC)c(N=C2C(=O)Nc3ccccc32)c1 | -1% | ·
COc1nc(OC/C(N)=N/O)nc(N2CCOCC2)n1 | 5% | >57
O=C(CCCc1ccccc1)N1CCc2ccccc21 | -9% | >57
COc1ccc(CCNc2c(N)n(Cc3ccccc3)c(=O)[nH]c2=O)cc1OC | 2% | ·
CCCc1nc(SCC(=O)NCc2ccco2)c2c(=O)n(C)c(=O)n(C)c2n1 | -11% | >57
CCN(CC)[C@@H](C)CN1c2ccccc2Sc2ccccc21 | -15%[3.58 µM] | >57
C=C(CO)[C@H]1Cc2c(ccc3c2O[C@H]2COc4cc(OC)c(OC)cc4[C@@H]2C3=O)O1 | ? | >57
O=C(COc1ccc(Cl)cc1Cl)NC1CCSC1=O (configuration not stated) | -7% | >57
CCC(=O)Nc1cccc(-c2nnc(SCC(=O)c3ccccc3)n2C)c1 | -13% | ·
COc1ccc(C(=O)Nn2c(C3CCC3)nc3ccccc3c2=O)c(OC)c1 | -8% | >57
O=C(CC(c1ccccc1)c1cc(Br)ccc1O)NCc1ccco1 (configuration not stated) | -2% | >57
CS(=O)(=O)N(CC(=O)N1CCN(c2ccccc2F)CC1)c1cccc(C(F)(F)F)c1 | -24% | >57
O=C(CN1CCN(c2nc(-c3ccccc3)cs2)CC1)Nc1ccc2c(c1)OCO2 | ? | >57
CCOc1cc(S(=O)(=O)NCc2ccco2)c(OCC)cc1-n1cnnn1 | 4% | >57
CCOC(=O)C1CCCN(Cc2cccc(Cl)c2)C1 (configuration not stated) | · | >57
CN1CCN(C(=O)c2cccc(S(=O)(=O)N3CCCCC3)c2)CC1 | -12% | >57
COc1ccccc1C(=O)NCc1ccc2c(c1)OCO2 | -3% | ·
O=C1CCCC(O)=C1C(C#Cc1ccccc1)C1=C(O)CCCC1=O | -14% | >57
O=C(C1CCCN1S(=O)(=O)c1cccc2cccnc12)N1CCc2ccccc21 (configuration not stated) | 6% | >57
Cn1cccc1C(=O)N1CCC[C@@]2(CCN(C(=O)Nc3cccc(C#N)c3)C2)C1 | 1% | >57
Fc1ccc(C(OCCN2CCN(C/C=C\c3ccccc3)CC2)c2ccc(F)cc2)cc1 | ? | >57
CC(C)C(=O)N1CCN(CCN=CC2=C(O)CC(c3ccco3)CC2=O)CC1 (configuration not stated) | 11% | >57
O=C(O)c1cccc(N2CCCC2=O)c1 | 4% | >57
CC1CN(C(=O)CN2C(=O)c3ccccc3C2=O)CC(C)O1 (configuration not stated) | 7% | >57
Cc1ccc(S(=O)(=O)N[C@H]2COC(=O)C/C=C\[C@@H](C)[C@H](NS(=O)(=O)c3ccc(C)cc3)COC(=O)[C@H](C)NC(=O)C/C=C\[C@H]2C)cc1 | 7%[1.6 µM] | ·
COc1ccc(N2C(=O)CC(Sc3nccc(C)n3)C2=O)cc1 (configuration not stated) | -5% | ·
COc1cccc(CNc2nc3nc(C)c(Cl)c(C)n3n2)c1 | 2% | ·

(more compounds)
structure | LT uptake inh | Prx2 Sm inh
Oc1ccc(-c2onc(C(F)(F)F)c2-c2cscn2)c(O)c1 | -24% | >57
Cc1ccc(-n2c(=O)c(C#N)cc3c(=O)n4ccccc4nc32)cc1 | ? | >57
CC(=O)N[C@H](Cc1c[nH]c2ccccc12)C(=O)O | -7%[8 µM] | >57
CCc1ccc(NS(=O)(=O)c2cccs2)cc1 | 1% | >57
Cc1cc(=O)[nH]c(SCC(=O)C23CC4CC(CC(C4)C2)C3)c1C#N | ? | >57
CCOC(=O)c1c(C)[nH]c(C(=O)CSc2ccccc2)c1C | 11% | >57
Cn1cnnc1SCC(=O)Nc1sc2c(c1C#N)CCCCC2 | 21% | >57
Oc1cc(Cc2ccccc2)cnc1CN1CCOCC1 | 3% | ·
O=C(Nc1ccc(OC(F)(F)F)cc1)C1CCCN(S(=O)(=O)c2cccnc2)C1 (configuration not stated) | ? | >57
O=C(NCC1COCCO1)C1CCN(S(=O)(=O)c2ccccc2)CC1 (configuration not stated) | -6% | >57
Cc1nc2cc(NC(=O)NCc3ccc4c(c3)OCO4)ccc2o1 | · | >57
CCOC(=O)c1ccc(NC(=O)NS(=O)(=O)c2ccc(C)cc2)cc1 | 5% | ·
CCOCCCNC(=O)CN(Cc1ccc(Cl)cc1)S(C)(=O)=O | 4% | >57
CC(=O)O[C@H]1CC[C@@]2(C)[C@@H](CC[C@@]3(C)[C@H]2C(=O)C=C2[C@H]4C[C@](C)(C(=O)OCCN5CCCCC5)CC[C@]4(C)CC[C@@]23C)C1(C)C | ? | >57
CC(C)c1nc2sc3c(SCC(=O)NCc4ccco4)ncnc3c2c2c1CCC2 | -4% | >57
CCOC(=O)Cn1cc(C(=O)C2CC2)c2ccccc21 | -9% | >57
CNc1nc2c(c(=O)[nH]c(=O)n2C)n1CCOC | 5% | >57
Nc1c(C(=O)NCc2cccnc2)sc(=S)n1-c1ccccc1 | -11% | ·
CCCCNC(=O)OCCNC(=O)Oc1cccc(C)c1 | -1% | >57
COc1ccc(S(=O)(=O)Nc2ccc(C)cc2)cc1OC | ? | >57
O=C(Cn1ccc(=O)[nH]c1=O)Nc1ccc(C(=O)O)c(O)c1 | -6%[8 µM] | >57
Cc1cccc(NC2=NC(C)(C)N=C(N)N2)c1C | -4% | >57
COCCNc1ncnc2ccc(-c3ccccc3C(F)(F)F)cc12 | -12% | ·
CC1=C(C#N)C2C(/C1=N/O)C2(C)C (configuration not stated) | -5% | ·
CCCCn1nnnc1SCC(=O)N1CCN(C(=O)c2ccco2)CC1 | -11% | >57
C=CC(C)(O)CCC=C(C)C (configuration not stated) | ? | ·
COc1ccc2cc3cc(C(=O)NCc4ccccn4)oc3nc2c1 | 4% | >57
COc1nc(Nc2ccc(-c3nc4ccccc4o3)cc2)nc(N2CCOCC2)n1 | 0% | >57
CCC(=O)Oc1ccc(-c2nc(-c3cccnc3)no2)cc1 | · | >57
COc1ccc(C(=O)n2nc(-c3ccccc3)nc2N)cc1OC | -11% | >57

Following part:
Each structure is followed by: LT uptake inh, Prx2 Sm inh
CCOC(=O)CSc1nc2sc3c(c2c(=O)n1CC)CC(C)(C)OC3
 : 2%, >57
CCCn1c(C)nc2c(NC(C)CCCN(CC)CC)nc(C)nc21 (configuration not stated)
 : 0%, ·
COc1ccc(COC(=O)C2=C(C)NC(=O)NC2c2ccc(O)c(OC)c2)cc1 (configuration not stated)
 : -1%, ·
CC(=O)c1c(C)nc(-c2ccc(Cl)cc2Cl)n1O
 : 8%, >57
COc1ccc(C(O)c2nc3ccccc3n2C)cc1OC (configuration not stated)
 : 4%, ·
CCOC(=O)CSc1nnc(CNC(=O)Cc2ccccc2)n1C
 : 8%, >57
Cc1ccc(Cl)cc1N1CCN(CC(=O)Nc2ccc3[nH]c(=O)[nH]c3c2)CC1
 : ?, >57
C=CCn1c(SCC(=O)OCc2ccccc2)nc2c1c(=O)n(C)c(=O)n2C
 : -5%, >57
C/C(=C1/SC(=S)N(CCC(=O)O)C1=O)c1ccc(O)cc1
 : 6%, ·
O=C(C(Cc1ccccc1)NS(=O)(=O)c1ccc(F)cc1)N1CCC2(CC1)OCCO2 (configuration not stated)
 : 3%, >57

Entries of single compounds, looked up by structure. Values in the order: LT uptake inh, Prx2 Sm inh
Listed for `Cc1nc2cc(NC(=O)NCc3ccc4c(c3)OCO4)ccc2o1` → ·, >57
Listed for `CCC(=O)Nc1cccc(-c2nnc(SCC(=O)c3ccccc3)n2C)c1` → -13%, ·
Listed for `COc1ccc2cc3cc(C(=O)NCc4ccccn4)oc3nc2c1` → 4%, >57
Listed for `COc1ccc(CCNc2c(N)n(Cc3ccccc3)c(=O)[nH]c2=O)cc1OC` → 2%, ·

A draw from above in order of count of non-hydrogen atoms, rising.
Each structure is followed by: LT uptake inh, Prx2 Sm inh
CC(=O)c1c(C)nc(-c2ccc(Cl)cc2Cl)n1O
 : 8%, >57
C/C(=C1/SC(=S)N(CCC(=O)O)C1=O)c1ccc(O)cc1
 : 6%, ·
CCOC(=O)CSc1nnc(CNC(=O)Cc2ccccc2)n1C
 : 8%, >57
CCCn1c(C)nc2c(NC(C)CCCN(CC)CC)nc(C)nc21 (configuration not stated)
 : 0%, ·
Cc1ccc(Cl)cc1N1CCN(CC(=O)Nc2ccc3[nH]c(=O)[nH]c3c2)CC1
 : ?, >57
COc1ccc(COC(=O)C2=C(C)NC(=O)NC2c2ccc(O)c(OC)c2)cc1 (configuration not stated)
 : -1%, ·
O=C(C(Cc1ccccc1)NS(=O)(=O)c1ccc(F)cc1)N1CCC2(CC1)OCCO2 (configuration not stated)
 : 3%, >57

(next part)
Each structure is followed by: LT uptake inh, Prx2 Sm inh
c1coc(CNCC2OCCc3ccccc32)c1 (configuration not stated)
 : -8%, >57
CC(C)c1nc(SCC(=O)N2CCN(c3ccccc3)CC2)c2c(=O)n(C)c(=O)n(C)c2n1
 : ?, >57
Cc1nc2nc(Cc3ccccc3)[nH]n2c(=O)c1Cl
 : 15%, >57
CCn1c(=N)n(CC(=O)C23CC4CC(CC(C4)C2)C3)c2ccccc21
 : ?, >57
CCCSc1nc2c(cnn2-c2ccc(Cl)cc2)c(=O)[nH]1
 : 18%, >57
CCC(=O)N(Cc1cc(=O)[nH]c2ccccc12)c1cccc(C)c1
 : ?, >57
COC(=O)c1[nH]c2cccc(OC)c2c1NC(=O)CN1CCN(c2cccc(OC)c2)C(C)C1 (configuration not stated)
 : ?, >57
NC(=O)c1cnn2c1NC(c1ccc(F)cc1)CC2C(F)(F)F (configuration not stated)
 : ?, >57
Cc1ccc2oc(=O)c3cnn(CC(=O)N(CCC(C)C)Cc4ccco4)c3c2c1
 : -8%, >57
CCOC(=O)c1cnn(-c2ncnc3sc(CC)cc23)c1N
 : 4%, ·
CSc1nc(C2CC2)cc(-c2cccs2)c1C#N
 : ?, >57
CCOc1ccc(/C=N/n2cnnc2)cc1
 : 3%, ·
COc1ccc(-n2c(=O)c(-c3cccc(C#N)c3)nc3cnc(N4CCNCC4)nc32)cc1
 : ?, >57
Cc1cccc(C)c1NC(=O)C1CC(=O)N(C(C)C)C1 (configuration not stated)
 : -10%, >57
CCCNC(=O)Cc1cc(=O)[nH]c(=O)[nH]1
 : -20%, >57

The list is partial; the hit share may differ from the screen's.
